# RecA splice inh: blocks M. tuberculosis RecA intein splicing | AID 2221 | P9WHJ3 | actives 0.75% (n = 290,000) | inhibition, %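 (about 9 µM by stock and volumes)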 | cell-free RecA intein splicing, fluorescence; in the data active = inhibition above about 30%; inconclusive = no clear call, values can overlap the other calls;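 also: 0% = vehicle wells and 100% = reference inhibitor control wells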
# Target sequence (P9WHJ3 whole entry, looked up, canonical isoform): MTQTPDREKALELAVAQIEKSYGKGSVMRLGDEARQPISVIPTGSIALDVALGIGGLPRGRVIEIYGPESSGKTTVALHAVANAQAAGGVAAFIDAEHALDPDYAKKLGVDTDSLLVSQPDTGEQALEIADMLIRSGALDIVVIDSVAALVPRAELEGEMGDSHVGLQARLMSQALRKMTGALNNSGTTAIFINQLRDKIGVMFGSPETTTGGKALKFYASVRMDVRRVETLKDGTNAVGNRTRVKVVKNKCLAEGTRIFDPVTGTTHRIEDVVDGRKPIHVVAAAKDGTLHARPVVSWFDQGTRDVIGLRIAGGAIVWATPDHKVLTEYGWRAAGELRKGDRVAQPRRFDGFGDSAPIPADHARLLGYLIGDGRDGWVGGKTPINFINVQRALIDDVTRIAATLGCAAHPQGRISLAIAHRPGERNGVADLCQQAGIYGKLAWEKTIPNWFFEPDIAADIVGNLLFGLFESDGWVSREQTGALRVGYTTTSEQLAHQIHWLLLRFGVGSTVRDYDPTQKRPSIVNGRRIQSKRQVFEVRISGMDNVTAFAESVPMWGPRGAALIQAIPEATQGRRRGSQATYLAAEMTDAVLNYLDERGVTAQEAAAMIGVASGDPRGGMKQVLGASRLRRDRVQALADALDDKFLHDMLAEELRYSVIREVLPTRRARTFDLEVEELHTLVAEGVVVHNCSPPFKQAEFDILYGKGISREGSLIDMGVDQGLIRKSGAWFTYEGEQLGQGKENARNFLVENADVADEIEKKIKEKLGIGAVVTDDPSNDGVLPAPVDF
# Mtb betalactam: beta-lactam sensitization of Mtb H37Rv; actives 0.27% (n = 330,000); M. tuberculosis H37Rv growth with meropenem, percent inhibition; hits of this screen are not shown here; inhibition, % at 25 µM;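 active = about 74% or more and at least 40 points above the plate without the antibiotic, then above 30% in a dose series; inconclusive = first-round hits that could not be retested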;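 also: growth measured after seven days incubation then overnight dye step; 0% = bacteria only wells and 100% = bacteria with antibiotic; twin plates without the antibiotic show which effects depend on it; some results filed as inactive read as strong as hits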
# YopH inh: YopH (Yersinia) phosphatase inhibition. fluorescence Ex485/Em525. inhibition, %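 (about 10 µM by stock and volumes)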. actives 0.16% (n = 140,000). AID 898;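 active = inhibition of 50% or more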;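 also: controls were vehicle for no effect and minimum signal wells for full effect; inactives centre near -20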
# Mtb H37Rv: M. tuberculosis H37Rv growth inhibitors, H37Rv strain (AID 1626); M. tuberculosis H37Rv growth inhibition; higher % means a stronger effect; one-dose inhibition, % at 10 µM; IC50 in µM for titrated hits; actives 0.95% (n = 220,000);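 active = confirmed in a dose series; inconclusive = inhibition above 80% but not taken into the dose series; inactive = below 80% or under 30% at every dose of the series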;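 also: bacteria incubated seven days before Alamar blue readout; 0% = bacteria only wells and 100% = bacteria with antibiotic wells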
# Arbovirus anti: blocks arbovirus infection | actives 0.37% (n = 200,000) | inhibition, % at 10 µM | arbovirus infection cell-based antiviral screen;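 active = inhibition from about 30%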;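 also: bluetongue infection of BSR cells; cell survival read as ATP light after 72 h; 0% = infected wells without compound and 100% = uninfected wells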
# Arbovirus anti repeat: recorded beside Arbovirus anti, whose call it bears; inhibition, %; measured here: 10K subset replicate screen; many hits read low in the repeat;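 first of two repeat runs on a subset; 0% = infected and 100% = uninfected wells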
# * marks the source's active call; other numbers are inactive results; ? = inconclusive; / = not tested or not shown. Only part of the results is shown; the hit share may differ from the screen's.
SMILES,RecA splice inh,Mtb betalactam,YopH inh,Mtb H37Rv,Arbovirus anti,others
Cc1nc(Cl)cc(CS(=O)(=O)c2ccc(Cl)cc2)n1,1.3,0,/,-6%,0,
O=c1cc(CNC2CCCCC2)c2ccccc2[nH]1,1.1,-1,-39,-8%,-4,
O=C(c1cccc(F)c1)N1CCN(Cc2ccco2)CC1,-3.0,5,-44,-11%,4,
Cc1cc(NC(=O)CSCCc2ccncc2)no1,-3.1,6,-14,/,11,Arbovirus anti repeat=-1
C[C@H]1CCC[C@@H](O)CCC/C=C/c2cc(O)cc(O)c2C(=O)O1,-2.2,?,-35,1%,15,Arbovirus anti repeat=21
CCOC(=O)Cc1csc(NC(=O)C(C)(C)CC)n1,0.6,4,5,2%,5,
COC(=O)C1=C(C)NC(C)=C(C(=O)OC)C1C(=O)OCc1nc2cc(C(=O)OC)ccc2c(=O)[nH]1,-13,-9,/,/,/,
COCCOC(=O)C1=C(C)N=C2SCCC(=O)N2C1c1ccc(OC(=O)c2ccco2)cc1 (stereo unspecified),33*,11,9,-9%,-3,
O=C(NC1CC2CCCC(C1)N2C(=O)Nc1ccccc1)C1CC1 (stereo unspecified),-0.9,3,/,/,/,
Cc1cc(C)n2nc(C(=O)OCC(=O)c3cc(C)n(C)c3C)nc2n1,-0.4,-1,-2,1%,0,
C=C(C)CN1C(=O)C2(OCCO2)c2cc(Br)ccc21,1.5,5,/,/,/,
COC(=O)c1sccc1NC(=S)N1CCCC(C)C1 (stereo unspecified),-1.4,-1,-22,-3%,1,
COc1cc(NC(=O)Nc2cccc(Cl)c2)c(OC)cc1NC(=O)CN1CCCCC1,4.0,4,-23,55%,-13,
N#Cc1ccc(OC(=O)Cc2ccsc2)cc1,4.2,2,/,/,/,
CCOc1ccc(C2c3[nH]c4ccccc4c3CCN2C(=O)Cn2cncn2)cc1 (stereo unspecified),5.9,-1,/,2%,-26,

# Brought forward from above: 2 entries, followed by the next part.
SMILES,RecA splice inh,Mtb betalactam,YopH inh,Mtb H37Rv,Arbovirus anti,others
N#Cc1ccc(OC(=O)Cc2ccsc2)cc1,4.2,2,/,/,/,
CCOc1ccc(C2c3[nH]c4ccccc4c3CCN2C(=O)Cn2cncn2)cc1 (stereo unspecified),5.9,-1,/,2%,-26,
O=C(/C=C/c1ccccc1)OCN1C(=O)c2ccccc2C1=O,-3.7,5,/,/,/,
COc1cc2c(cc1OC)CN(C(=O)c1cc(S(=O)(=O)N3CCOCC3)ccc1C)CC2,-1.0,-9,/,/,/,
O=C(NCc1ccco1)C(=O)NCC1OCCN1S(=O)(=O)c1ccc(F)cc1 (stereo unspecified),1.1,0,-28,0%,-3,
CCCN(CCC)CCCNC(=O)CC(C(=O)N1CCc2ccccc21)n1ccnc1 (stereo unspecified),-3.4,-8,-11,-10%,7,
Nn1c(COc2ccc(Cl)cc2)nc2ccccc2c1=O,3.8,6,-23,2%,-4,
Cc1ccc(S(=O)(=O)N2CN(CC3CCCO3)c3nc4ccccc4nc32)cc1 (stereo unspecified),-2.5,1,/,/,/,
Cc1cccc(C)c1NC(=O)CN(C)CC(=O)Nc1ccc(C#N)c(Cl)c1,1.4,-9,-137,5%,6,
COc1ccc(NC(=S)N2CCC(NC(=O)c3cccc(F)c3)CC2)cc1,0.3,-1,/,/,/,
COc1ccccc1CNC(=O)CCCC(=O)n1ncc2cc(C)ccc21,-1.9,5,/,/,/,
O=c1c2ccccc2cnn1-c1ccc(Cl)cc1,2.5,-8,6,10%,-1,
Cc1cccc(C(=O)/C=C2/c3ccccc3CC(C)(C)N2C)c1,1.7,-4,-15,6%,16,
Cc1cc2c(NC(=O)Nc3ccc(F)cc3)cccc2nn1,0.8,-4,/,-4%,/,
CN(C)C(=O)c1sccc1Oc1ccc(F)cc1[N+](=O)[O-],-2.1,-2,/,-4%,-1,
COc1ccc(C2CC(=O)c3cnc(NC(=O)c4ccccc4)nc3C2)c(OC)c1 (stereo unspecified),2.5,-8,-46,-2%,-13,
COc1ccc2nc(N3C(=O)CC(Cc4ccc(Cl)cc4)C3=O)sc2c1 (stereo unspecified),0.3,-1,-58,-1%,28,
Nc1c(C(=O)Nc2cccc(F)c2)nnn1-c1cccc(C(F)(F)F)c1,-2.9,1,/,1%,-3,
COc1cc(C(=O)O)c2ccccc2n1,-1.2,-5,/,-5%,-3,
Cc1occc1C(=O)Nc1sc2c(c1C(N)=O)CCCCC2,-1.1,18,11,7%,6,
Cc1ccc(S(=O)(=O)/N=C(/Sc2ccccc2C(=O)O)c2ccccc2)cc1,0.3,1,/,/,/,
COc1ccccc1OCC(=O)NCC(c1cccs1)N1CCOCC1 (stereo unspecified),-0.5,-4,/,/,/,
CCCCNC(=NCc1cccc(C(F)(F)F)c1)Nc1ccccc1,0.8,12,/,/,/,
CN(C(=O)c1ccccc1C(=O)OCC(=O)c1ccc(Br)cc1)c1ccccc1,12,-7,/,/,/,
COc1ccccc1CNc1nc(-c2cc(C)n(C)c2C)cs1,/,/,/,7%,10,
CCN(CCn1cccn1)C(=O)C1CCC(=O)N(CCc2cccc(F)c2)C1 (stereo unspecified),-3.2,-1,/,/,/,
CC(=NCCC1=CCCCC1)c1c(O)n(C)c(=O)n(C)c1=O,1.0,-1,-35,-2%,-35,
CCCCCn1nc(C(=O)OCC(=O)c2c(N)n(C)c(=O)n(C)c2=O)c2ccccc2c1=O,-0.9,-8,/,3%,7,
Cc1ccc(CNC(=O)Cn2c(=O)oc3ccccc32)o1,0.9,-2,7,6%,4,
COc1cc(OC)c(C2C(C(=O)Nc3ccc(C)cc3C)=C(C)Nc3ncnn32)cc1OC (stereo unspecified),1.4,5,-7,-9%,1,
CSCC[C@H](NC(=O)Nc1ccccc1C)C(=O)O,-1.0,-4,/,3%,/,
COc1ccc(-n2c(SCC(=O)NCC3CCCO3)nc3c(c2=O)SCC3)cc1 (stereo unspecified),0.4,-3,/,/,/,
COc1ccc(/C=C2\CCc3c2nc2ccccc2c3C(=O)O)cc1OC,-496,23,/,2%,/,
O=c1[nH]c(NNC(=S)NC2CCCCC2)nc2c1C1(CCCC1)Cc1ccccc1-2,4.5,1,/,3%,/,
Cc1cc(C(=O)NNC(=O)CN2C(=O)NC(C)(c3ccccc3)C2=O)c(C)o1 (stereo unspecified),-3.9,4,/,/,/,
Cc1ccc(NC(=O)C(OC(=O)c2cnc(C)cn2)c2ccccc2)c([N+](=O)[O-])c1 (stereo unspecified),2.6,-6,/,/,/,
Nc1ccccc1N1C(=O)c2cccc3cccc(c23)C1=O,-0.2,-4,/,/,/,
CC(C)c1ccc(C(C)NC(=O)C2CCCC2)cc1 (stereo unspecified),2.9,-6,/,/,/,
CO/N=C/NC(=O)NOCc1ccc(Cl)cc1Cl,-3.1,-2,-5,-1%,4,
CCOC(=O)c1c(NC(=O)CSc2nc3ccccc3c(=O)n2-c2ccc(F)cc2)sc(C(C)=O)c1C,-1.1,-3,-37,1%,-9,
CC(=O)Nc1ccc(NC(=O)CSc2nc(C)nc3sc(C)c(C)c23)cc1,2.0,-3,/,-9%,-12,
COc1ccc(CNC(=O)CN(C(=O)c2snc(C(N)=O)c2N)c2ccc(F)cc2)cc1,-1.6,-3,/,/,/,
Cc1ccccc1OCC(=O)Nc1ccccc1N1CCC(C)CC1,12,31,/,23%,-13,
CC(=O)c1ccccc1OC(=O)CCN1C(=O)c2ccccc2C1=O,2.0,5,/,4%,-3,
Cc1ccc(N2CCN(S(=O)(=O)N3CCCCCC3)CC2)cc1Cl,0.1,-5,-3,-3%,6,
Cc1ccc(NC(=O)NNC(=O)c2ccccc2)cc1,-5.9,0,/,-1%,10,
CCn1c(=O)n(CC(=O)NCc2ccco2)c(=O)c2ccccc21,0.9,5,-43,-10%,-10,
O=C(c1ccc(F)cc1)N1CCN(C(=O)c2cccnc2)CC1,0.2,-6,-2,-7%,1,
Cn1nc(-c2ccc3c(c2)OCCO3)c2ccccc2c1=O,-3.5,-3,/,-2%,5,
Cc1cc(=O)[nH]c2nnc(-c3ccc(Br)cc3)n12,1.0,6,/,/,/,
O=C(O)CC/C(=N/NC(=O)c1ccc(-c2ccccc2)cc1)c1ccccc1,4.0,-7,/,/,/,
C(#Cc1ccccc1)CN1CCCCC1,-1.5,13,/,-14%,-4,
Cc1ccc(-c2nnnn2-c2ccccc2C(=O)O)cc1,1.3,-11,/,/,/,
CC(Oc1ccc(Cl)cc1Cl)C(=O)NCc1ccncc1 (stereo unspecified),3.4,44,-3,8%,-7,Arbovirus anti repeat=-1
COc1cc(S(=O)(=O)N2CCN(C)CC2)c(OC)cc1Cl,-3.9,3,-18,-13%,-1,
Cc1ccnc(NS(=O)(=O)c2cnc(Cl)c(Br)c2)c1,-1.3,1,-38,-4%,0,
Cn1ncc([N+](=O)[O-])c1C(=O)Nc1cccc2ccccc12,-3.8,1,/,/,/,
CCN(CC)CCN(Cc1cc2ccc(C)cc2[nH]c1=O)C(=O)NC1CCCCC1,-3.1,-2,/,-6%,6,
Cc1cccc(NC(=O)Cn2c(=O)n3nc(CCn4nc(C)cc4C)nc3c3ccccc32)c1,-1.9,59,-38,-4%,5,
CCOC(=O)c1cc(-c2ccccc2)sc1NC(=O)CCN1C(=O)c2ccccc2C1=O,1.0,-6,14,-3%,1,
CC(NCC(O)COc1ccc(S(=O)(=O)N2CCOCC2)cc1)c1ccccc1 (stereo unspecified),-1.7,0,/,3%,7,
CC(C)c1csc(CN2CCN(CCc3ccccc3)C(CCO)C2)n1 (stereo unspecified),-3.1,-8,/,3%,-3,
# Continued:
SMILES,RecA splice inh,Mtb betalactam,YopH inh,Mtb H37Rv,Arbovirus anti,others
CC(=O)c1cccc(NC(=O)NCc2ccc3c(c2)OCO3)c1,-1.3,-3,/,/,/,
CCc1ccc(OCC(=O)O/N=C(\N)c2ccccn2)cc1,-2.0,/,/,9%,/,
CCC(=O)N=c1sc2cc(F)cc(F)c2n1C,0.2,7,-22,6%,0,Arbovirus anti repeat=-3
O=S(=O)(NCc1ccco1)c1ccc2c(c1)Cc1ccccc1-2,1.0,13,7,-1%,0,
O=C1CCc2cc(S(=O)(=O)NC(Cc3ccccc3)C(=O)NC3CCCCC3)ccc2N1 (stereo unspecified),/,3,-53,/,-3,
CCOC(=O)C(=CNNc1c(C)csc1C(=O)OC)C(=O)OCC,0.3,-1,/,-1%,/,
Cc1[nH]nc2c1C(c1ccccc1)C1=C(CC(C)(C)CC1=O)N2 (stereo unspecified),-1.1,-4,-33,-6%,19,
COc1ccc(NC(=O)Nc2ccc(O)c3ccccc23)cc1,67*,73,/,/,/,
CSc1nc2cc3c(cc2n1C(=O)c1ccc(C)cc1)OCCO3,/,/,-3,2%,3,
CCOC(=O)c1nnn(CC(=O)N2N=C(c3cccc4ccccc34)CC2c2ccccc2)c1C(=O)OCC (stereo unspecified),-2.0,-2,-38,-9%,16,
COc1ccc(C(=O)NCC(=O)NCC(=O)OCC(=O)C(C)(C)C)cc1,3.0,3,-18,1%,3,
CCOC(=O)c1sc(CS(=O)(=O)c2ccc(Cl)cc2)nc1C,0.9,-3,/,-2%,/,
C=CCNC(=S)NCC=C,-0.2,-4,/,-9%,/,
COc1ccccc1CNC(=O)C(NS(=O)(=O)c1ccc2c(c1)oc(=O)n2C)C(C)C (stereo unspecified),3.3,-5,-51,-13%,5,
CC(C)=CC1C(C(=O)NCCc2ccccc2)C1(C)C (stereo unspecified),2.4,-4,/,/,/,

# An excerpt of the results above, for reference:
SMILES,RecA splice inh,Mtb betalactam,YopH inh,Mtb H37Rv,Arbovirus anti,others
CCOC(=O)c1nnn(CC(=O)N2N=C(c3cccc4ccccc34)CC2c2ccccc2)c1C(=O)OCC (stereo unspecified),-2.0,-2,-38,-9%,16,
COc1ccc(C(=O)NCC(=O)NCC(=O)OCC(=O)C(C)(C)C)cc1,3.0,3,-18,1%,3,
CCOC(=O)c1sc(CS(=O)(=O)c2ccc(Cl)cc2)nc1C,0.9,-3,/,-2%,/,
C=CCNC(=S)NCC=C,-0.2,-4,/,-9%,/,
COc1ccccc1CNC(=O)C(NS(=O)(=O)c1ccc2c(c1)oc(=O)n2C)C(C)C (stereo unspecified),3.3,-5,-51,-13%,5,
CC(C)=CC1C(C(=O)NCCc2ccccc2)C1(C)C (stereo unspecified),2.4,-4,/,/,/,

# (next part)
SMILES,RecA splice inh,Mtb betalactam,YopH inh,Mtb H37Rv,Arbovirus anti,others
CCOC(=O)c1c(C)n(C)c2cc(-c3ccc(C)cc3)c(O)cc12,-2.8,2,-19,5%,3,
Cc1nc(-c2nc(C(=O)NNS(C)(=O)=O)cs2)cs1,-4.7,-1,/,-7%,/,
CCOc1ccc(NC(=O)CS(=O)CC(=O)Nc2cccnc2)cc1 (stereo unspecified),-0.7,-2,/,/,/,
CC(C)CC1COC(=O)N1 (stereo unspecified),-2.0,-10,/,/,/,
CC(=O)OCc1cc(-c2nc3ccccc3[nH]c2=O)nn1-c1ccc(Cl)cc1,-0.3,4,/,-12%,/,
